2A StopGo: FMDV 2A StopGo reporter, luciferase signal | Potency, µM (series often up to 57.9 µM), for the others: at the highest dose signal change, negative = less light | 410,000 tested, 1.2% active | human cells with a luciferase reporter of 2A StopGo recoding; control for the full effect not named in the record; active = well fitted falling curve with a large enough effect; inconclusive = small, poorly fitted or top-dose-only effect; inactive = no such curve, though single readings can be large or run the other way; tested in HEK293T cells; note: % is set by controls: 0 for no effect and ±100 for the full control effect; nearly all actives have a fitted effect of over 45% in size; luciferase light after 4 h
SARS PLpro yeast: inhibitors of SARS-CoV papain-like protease in yeast; S. cerevisiae expressing SARS-CoV PLpro, growth rescue; control for the full effect not named in the record; 330,000 tested, 0.19% active; AID 485353; Potency, µM (top dose mostly 32.9 µM), inactives show at the top dose activity, positive = growth rescue; note: 0% is about no effect; nearly all actives have a fitted effect of over 55% in size; growth read by luminescence after 48 h
MARV entry inh: blocks Marburg virus binding to or entry into cells | Marburg virus pseudotyped entry inhibition, cell reporter; control for the full effect not named in the record; about a third of the inactives were read at about 46 µM | Potency, µM (top dose mostly 37.8 µM), inactives show top-dose activity change, negative = inhibition, most hits filed as inhibitors | 300,000 tested, 1.8% active; active = well fitted inhibition curve with a large enough effect; inconclusive = small, poorly fitted or top-dose-only effect, or effect the other way; inactive = flat fitted curve, though single readings scatter; tested in HEK293 cells; about a fifth of its hits are not listed in these tables; note: % is set by controls: 0 for no effect and ±100 for the full control effect; luciferase read-out
NS1 function inh: blocks influenza NS1 protein function | S. cerevisiae slowed by influenza A NS1, growth recovery by OD600 | Potency, µM (series often up to 46.1 µM), for the others: at the highest dose activity, positive = more growth | 270,000 tested, 0.4% active | AID 2326; note: actives are rising curves; nearly all actives have a fitted effect of over 50% in size
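Compounds were scored for reversing the slow growth caused by influenza A NS1 in S. cerevisiae, measured by optical density at 600 nm. Assay medium contained 2% galactose at pH 6.0; NS1-free yeast of the same strain were the positive control.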
Cruzain inh Det: cruzain (T. cruzi) inhibition with detergent | P25779 | purified cruzain, Z-FR-AMC fluorescence, 0.01% Triton | Potency, µM, inactives show max response, negative = inhibition, most hits filed as inhibitors | 200,000 tested, 0.43% active; active = well fitted curve in the direction sought with a large enough effect; inconclusive = small, poorly fitted or top-dose-only effect, or another doubt; inactive = no such curve, though single readings can be large; an effect the other way counts as inactive or inconclusive;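 note: plate controls were neutral wells for no effect and buffer without enzyme for full effect; nearly all actives have a fitted effect of over 40% in size; top concentration of the series not given in the record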
Target sequence (P25779 123-467 limits assumed): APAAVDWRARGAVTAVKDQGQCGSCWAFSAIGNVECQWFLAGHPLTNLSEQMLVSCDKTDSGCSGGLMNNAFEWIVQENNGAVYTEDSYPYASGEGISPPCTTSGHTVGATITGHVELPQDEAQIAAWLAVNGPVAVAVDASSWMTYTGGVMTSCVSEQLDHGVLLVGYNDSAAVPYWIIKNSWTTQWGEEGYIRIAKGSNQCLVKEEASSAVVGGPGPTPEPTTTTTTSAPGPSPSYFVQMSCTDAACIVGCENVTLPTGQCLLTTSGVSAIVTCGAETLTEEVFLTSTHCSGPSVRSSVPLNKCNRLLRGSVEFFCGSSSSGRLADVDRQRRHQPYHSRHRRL
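Sodium acetate buffer (100 mM, pH 5.5) containing 5 mM DTT and 0.01% Triton X-100 hosted 1.5 nM cruzain and test compound for 15 min at room temperature. Cleavage of 2 uM Z-FR-AMC was then tracked by fluorescence.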
Cruzain noTriton: blocks cruzain activity in detergent-free assay | P25779 | 200,000 tested, 2.3% active | AID 1476 | purified cruzain, Z-FR-AMC fluorescence, no detergent | Potency, µM, inactives show max response, negative = inhibition, hits mostly inhibitors; active = well fitted curve in the direction sought with a large enough effect; inconclusive = small, poorly fitted or top-dose-only effect, or another doubt; inactive = no such curve, though single readings can be large; an effect the other way counts as inactive or inconclusive;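 note: plate controls were enzyme without inhibitor for no effect and buffer without enzyme for full effect; nearly all actives have a fitted effect of over 40% in size; top concentration of the series not given in the record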
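Detergent-free condition (0.00005% Triton X-100) in acetate buffer pH 5.5 with DTT. 1.5 nM enzyme and compound were pre-mixed 15 min, then 2 uM Z-FR-AMC substrate added; reaction progress from fluorescence change between first and third reads (60 s).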
Lassa entry inh: Lassa virus entry inhibition. Lassa virus pseudotype entry inhibition, cell reporter; control for the full effect not named in the record. Potency, µM (titrated, usually from 37.9 µM), without a hit: top-dose activity change, negative = inhibition, actives largely listed as inhibitors. 300,000 tested, 1.2% active. AID 540256; active means well fitted inhibition curve with a large enough effect; inconclusive means small, poorly fitted or top-dose-only effect, or effect the other way; inactive means flat fitted curve, though single readings scatter; tested in HEK293 cells; note: % is set by controls: 0 for no effect and ±100 for the full control effect; nearly all actives have a fitted effect of over 50% in size; luciferase read-out
RE007 growth inh: less growth of the S. pombe RE007 Vpr strain. S. pombe RE007 Vpr strain, BacTiter-Glo ATP luminescence, 24 h; control for the full effect not named in the record. Potency, µM (top dose mostly 92.2 µM), for the others: at the highest dose activity change, negative = less growth. AID 651644. 360,000 tested, 0.21% active; active = well fitted falling curve with a large enough effect; inconclusive = small, poorly fitted or top-dose-only effect; inactive = no such curve, though single readings can be large or run the other way;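 note: % is set by controls: 0 for no effect and ±100 for the full control effect; nearly all actives have a fitted effect of over 50% in size; the assay follows cell death caused by Vpr and the record does not say whether a fall means rescue or toxicity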
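Fission yeast strain RE007, carrying one chromosomally integrated HIV-1 vpr copy, was seeded at OD 0.01 in PMG+AL medium with 23 nL pinned compound. After 24 h at 30 °C and 99% humidity, viability was read by BacTiter-Glo luminescence.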
* hit, by the source's call; ? = inconclusive; / = not tested or not shown; & = joins results of further samples; [ ] = another dose, or the depositor's remark. Unless noted, calls come from the whole dose curve; as a rule, active means well fitted rising curve with a large enough effect; inconclusive means small, poorly fitted or top-dose-only effect; inactive means no such curve, though single readings can be large or run the other way. Potency is the fitted concentration of half-maximal effect. Outcome played no part in choosing rows, and some 4.5% of all compounds hit somewhere here.

The line under a structure holds: RE007 growth inh, Cruzain inh Det, NS1 function inh, 2A StopGo, MARV entry inh, SARS PLpro yeast, Lassa entry inh, Cruzain noTriton
CCN(CC)C(=O)c1nn(-c2ccccc2)c2c1C1CCC2(C)C1(C)C (configuration not stated)
 : 14%, /, /, -24%, ?, -6%, ?, /
COc1ccc(C(=O)NC2CCSc3ccccc32)cc1F (configuration not stated)
 : -29%, /, -17%, 7%, -16%[46.1 µM], -1%, -3%[46.1 µM], /
CCOC(=O)Cc1csc(NS(=O)(=O)c2ccc(F)cc2)n1
 : 1%, 4.0%, 17%, -17%, -26%, 15%, -7%, -5%
CC(NC(=O)CCn1c(=S)[nH]c2ccsc2c1=O)c1ccccc1 (configuration not stated)
 : 11%, /, /, -8%, -1%[46.1 µM], 1%, ?, /
Cc1cc(C(=O)CSc2nc(N)cc(N)n2)c(C)n1CC1CCCO1 (configuration not stated)
 : -10%, /, /, -1%, 4%[46.1 µM], 3%, 9%[46.1 µM], /
COc1ccc(Cl)cc1S(=O)(=O)N1CCC(C(=O)NC2CCCC2)CC1
 : -6%, /, 2%, -1%, -11%[46.1 µM], /, ?, /
Cc1nc2nc[nH]c2cc1Br
 : -9%, 7.3%, 5%, 0%, 2%, -7%, 22%, 0%
CC(CNC(=O)c1ccc(NC2=NC3CS(=O)(=O)CC3S2)cc1)c1ccccc1 (configuration not stated)
 : 7%, /, -7%, -18%, /, -5%, /, /
COc1ccc(-c2nc(C)c(CCNS(=O)(=O)c3cc(Cl)ccc3Cl)s2)cc1
 : /, -8.5%, /, 62%[activator], /, /, ?, 5%
CCOc1ccc(S(=O)(=O)N2CCCC(C(=O)NCc3ccccn3)C2)cc1 (configuration not stated)
 : 22%, /, 5%, -3%, 2%[46.1 µM], -3%, /, /
Cc1ccc(NS(=O)(=O)c2ccc(OCC(=O)Nc3cccc([N+](=O)[O-])c3)c(C)c2)cc1
 : -12%, -3.0%, 7%, 20%, ?, -1%, ?, ?
Cc1cccc2nc(-c3ccc(N(C)C)cc3)c(Nc3ccc4c(c3)OCO4)n12
 : /, -3.0%, /, 12%, ?, /, ?, 4%
COc1ccccc1-n1c(SCC(=O)NC(C)(C)C)nnc1-c1ccco1
 : -7%, -2.8%, -1%, -15%, -9%, 18%, 9%, 1%
O=C(O)CC1C(=O)NCCN1CCCc1ccccc1 (configuration not stated)
 : -5%, 2.5%, -9%, 0%, /, 2%, /, -1%
O=c1c2sc3ccccc3c2n(Cc2cccc(C(F)(F)F)c2)c(=O)n1-c1ccccc1
 : /, -6.7%, /, -10%, ?, /, ?, -5%
COc1cc2c(cc1NC(=O)C(C)Oc1ccccc1)oc1ccccc12 (configuration not stated)
 : /, -8.8%, /, 17%, ?, /, 14%[46.1 µM], -14%
CCCn1c(=O)c2ccccc2n2c(=S)[nH]nc12
 : 3%, /, 3%, -14%, -6%[46.1 µM], 1%, 21%[46.1 µM], /
NC(=O)C1CCN(c2oc(/C=C/c3ccccc3)nc2S(=O)(=O)c2ccccc2)CC1
 : 7%, /, 14%, -4%, 0%[46.1 µM], 5%, 5%[46.1 µM], /
CN(C(=O)COC(=O)C(C)(C)Oc1ccc(Cl)cc1)c1c(N)n(Cc2ccccc2)c(=O)[nH]c1=O
 : 3%, /, /, -19%, -16%, 5%, -18%, /
CCO[C@H]1OC(C(=O)Nc2ccccc2)=C[C@@H](c2ccc(C(F)(F)F)cc2)[C@@H]1CCCO
 : 11%, /, -38%, ?, /, -5%, /, /
Cc1cc(Br)ccc1OCC(=O)NNC(=O)C(=O)Nc1ccccc1
 : -14%, /, -4%, 23%, ?, -1%, 23%, /
O=C1CCC([N+](=O)[O-])C(c2ccc3c(c2)OCO3)N1 (configuration not stated)
 : 7%, /, 5%, 4%, /, 5%, /, /
Cc1cc(C(=O)NN=Cc2ccc(OC(=O)c3ccco3)cc2)c(C)o1
 : -22%, /, /, 30%, ?, -16%, 15%, /
Cc1ccccc1OCC(=O)N/N=C/c1ccc([N+](=O)[O-])o1
 : 16%, -4.8%, -15%, ?, -3%, 15%, /, 4%
CC(=O)N1CCN(Cc2nc3scc(-c4ccccc4)c3c(=O)[nH]2)CC1
 : 2%, /, /, -10%, -8%, 1%, 5%, /
COc1ccc(N(CC(=O)NC(C)(C)C)C(=O)CCC(=O)Nc2nccs2)c(OC)c1
 : -22%, /, 26%, 7%, /, -1%, /, /
COc1ccc(N(C(=O)c2ccncc2)S(=O)(=O)c2ccc(Cl)cc2)cc1
 : -4%, /, -155%, 0%, /, -22%, /, /
Cc1cc(C)cc(NC(=O)COc2coc(CN3CCc4ccccc43)cc2=O)c1
 : 4%, /, /, 2%, -15%, 4%, -10%, /
CCOc1ccccc1/C=N/NC(=O)CNC(=O)c1cccs1
 : -7%, /, /, 16%, ?, -5%, 6%[46.1 µM], /
CCc1ccc(C(=O)c2cn(CC(=O)Nc3cc(OC)ccc3OC)c3nc(C)ccc3c2=O)cc1
 : /, -3.8%, /, -15%, /, /, 13%[46.1 µM], -3%

Molecules shown so far with an aryl thioether with sulfur outside any ring:
The line under a structure holds: RE007 growth inh, Cruzain inh Det, NS1 function inh, 2A StopGo, MARV entry inh, SARS PLpro yeast, Lassa entry inh, Cruzain noTriton
Cc1cc(C(=O)CSc2nc(N)cc(N)n2)c(C)n1CC1CCCO1 (configuration not stated)
 : -10%, /, /, -1%, 4%[46.1 µM], 3%, 9%[46.1 µM], /
COc1ccccc1-n1c(SCC(=O)NC(C)(C)C)nnc1-c1ccco1
 : -7%, -2.8%, -1%, -15%, -9%, 18%, 9%, 1%

(next part)
The line under a structure holds: RE007 growth inh, Cruzain inh Det, NS1 function inh, 2A StopGo, MARV entry inh, SARS PLpro yeast, Lassa entry inh, Cruzain noTriton
Cc1ccc2cc(C(c3nnnn3C3CCCC3)N3CCN(c4ccc(F)cc4)CC3)c(=O)[nH]c2c1 (configuration not stated)
 : -3%, -13%, ?, -18%, ?, 7%, ?, -14%
CC12CC(NC(=O)N1c1cccc(C(=O)N3CCCCC3)c1)c1ccccc1O2 (configuration not stated)
 : -4%, /, 13%, -7%, 9%[46.1 µM], 1%, 22%[46.1 µM], /
O=C(O)c1cc([N+](=O)[O-])ccc1Nc1ccccc1
 : 2%, -9.7%, -15%, 4%, 14%, -3%, 0%, -16%
Cc1nn(CC(=O)NCCCN2CCCCC2C)c(=O)c2cccn12 (configuration not stated)
 : -3%, /, 3%, -8%, 27%[46.1 µM], -17%, 0%[46.1 µM], /
Cc1nn2c(C)c(C(=O)N3CCN(c4ccccc4F)CC3)cnc2c1-c1ccc(F)cc1
 : /, -8.3%, /, -23%, /, /, -2%[46.1 µM], ?
COc1ccc(C(=O)CC(=O)c2ccccc2O)cc1
 : -17%, /, -31%, 10%, ?, 0%, ?, /
COCCC(=O)N1CCC(Oc2ccc(C(=O)NCCSC)cc2)CC1
 : 2%, /, 15%, 11%, ?, 2%, 3%[46.1 µM], /
CCC(Cc1ccccc1)NC(=O)C1CCN(c2nn3c(=O)cc(C)nc3s2)CC1 (configuration not stated)
 : -12%, /, 18%, -15%, /, 4%, /, /
CC(Sc1nc2ccccc2s1)C(=O)Nc1nnc(C(C)C)s1 (configuration not stated)
 : -3%, -9.2%, -17%, -25%, /, -14%, /, 3%
O=C(NCc1nnc2c(C(F)(F)F)cc(Cl)cn12)c1ccc2c(c1)OCO2
 : 24%, /, 4%, 0%, /, 2%, /, /
CCN(C(=O)COC(=O)c1c(-c2ccccc2)noc1C)C1CCS(=O)(=O)C1 (configuration not stated)
 : -2%, 7.2%, -1%, 7%, 2%, -6%, -2%, 2%
O=C(Nc1ccccc1)OCCOc1ccccc1Br
 : 9%, /, -9%, 46%[activator], /, 0%, /, /
COc1ccc(-c2nc3ccccc3s2)cc1NC(=O)COc1cccc(C)c1
 : /, -3.3%, /, 20%, 20%[46.1 µM], /, -15%[46.1 µM], 2%
CN1CCN(/N=C/c2c3ccccc3c(Cl)c3ccccc23)CC1
 : ?, /, /, -17%, ?, -2%, ?, /
Cc1cccc(N2CCN(C(=O)c3cn(CC(C)C)c(=O)c4c3c3ccccc3n4C)CC2)c1C
 : /, -1.5%, /, -14%, 7%[46.1 µM], /, 4%[46.1 µM], -1%
Cc1ccn2cc(-c3nonc3C)cc2c1
 : -18%, -18%, ?, /, 8%, 8%, -1%, -29%
COc1ccc2cc(C(c3nnnn3Cc3ccccc3)N3CCCCCC3)c(=O)[nH]c2c1 (configuration not stated)
 : 2%, -6.2%, -2%, -11%, -29%, -9%, -3%, -12%
O=C(CSc1nn(-c2ccccc2)c(=S)s1)NC1CCS(=O)(=O)C1 (configuration not stated)
 : 5%, -3.8%, -6%, -23%, 25%, -3%, 4%, 13%
COCCn1ccc2c(OCC(=O)Nc3cccc(OC)c3)cccc2c1=O
 : /, -5.4%, /, ?, /, /, -13%[46.1 µM], -6%
COc1ccccc1S(=O)(=O)c1c(C)cc(C)[nH]c1=O
 : 11%, /, -7%, 1%, 11%[46.1 µM], 2%, 20%[46.1 µM], /
NC(=S)Nc1ccc2c(c1)OCO2
 : 0%, /, 5%, -10%, -20%[46.1 µM], 1%, 5%[46.1 µM], /
Cc1ccc(C(=O)NCCCNC(=O)COc2ccc(Cl)c(C)c2)cn1
 : -1%, /, /, -23%, 0%, -2%, 4%, /
CCCCCCOC(=O)c1ccccc1NC(=O)/C=C/C(=O)O
 : ?, 1.7%, -37%, ?, ?, -16%, 6%, ?
Oc1ccc2[nH]cnc2c1CN1CCCCC1
 : 16%, -2.6%, -8%, -12%, -5%, -4%, 6%, -20%
O=C(C1CCC(=O)N1C1CCCC1)N1CCC2(CC1)OCCO2 (configuration not stated)
 : 3%, 5.3%, 6%, 12%, 0%, 2%, -7%, -4%
Cc1cc(NS(=O)(=O)c2ccc(NC(=O)c3cnc4scc(C)n4c3=O)cc2)nc(C)n1
 : 2%, -12%, -51%, 106%[activator], 7%&7%, -6%, 1%, 14%
